Assay outcomes: PubChem BioAssay, several laboratories
Rce1 inhib: yeast Ras-converting enzyme inhibition. 290,000 compounds, 0.27% hits. calls only. Q03530. AID 2563. yeast membranes, quenched prenylated peptide cleavage fluorescence;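 active = fall in fluorescence gain of 50% or more versus controls, with final raw signal at or below 3038400; inconclusive = same 50% fall but final raw signal above 3038400; inactive = fall in fluorescence gain under 50%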;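 note: plate controls were neutral control wells for no effect and wells lacking membranes for full effect; tested at 10 µM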
Target sequence (Q03530 whole entry, looked up): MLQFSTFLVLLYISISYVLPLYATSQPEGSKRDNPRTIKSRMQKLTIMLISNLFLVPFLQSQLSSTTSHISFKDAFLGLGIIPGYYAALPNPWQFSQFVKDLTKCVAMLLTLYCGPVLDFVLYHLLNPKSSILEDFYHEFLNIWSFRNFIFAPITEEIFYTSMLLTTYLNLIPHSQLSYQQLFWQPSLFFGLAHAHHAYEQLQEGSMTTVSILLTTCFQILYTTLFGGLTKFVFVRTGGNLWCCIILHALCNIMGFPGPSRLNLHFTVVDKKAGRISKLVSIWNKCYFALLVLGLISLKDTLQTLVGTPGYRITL
eIF4H FP inh: inhibitors of RNA binding by human eIF4H; Q15056; eIF4H fluorescence polarization binding assay; inhibition, % at 35 µM; 290,000 compounds, 0.94% hits; AID 2012;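 active = 50% or more with normal probe brightness, or confirmed in later tests; inconclusive = above 50% with abnormal brightness, or retests that disagree; inactive = below 50% or failed in later tests; about a fifth of its hits are not listed in these tables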;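 note: calls also rest on retests at 20 µM and on dose response follow-up; 0% = protein and probe with vehicle and 100% = probe without protein; strong numbers were not always called active; many hits fall short of the cut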
CSC inhib: blocks cancer stem cells; 300,000 compounds, 1.1% hits; inhibition, % at 7.5 µM; cancer stem cell-like cells viability, luminescence;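 active = mean at 75% or more and at least half the replicates too; inconclusive = mean and replicates disagree; tested in HMLE shEcad cells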;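 note: 0% = median of negative and 100% = median of positive control wells; the first replicate is given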
Yeast UUG start: yeast start codon fidelity modulation; AID 602363; S. cerevisiae UUG-firefly luciferase reporter, luminescence/redox ratio; activity score, % at 18.7 µM; 350,000 compounds, 0.13% hits;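 active = replicate mean at a twofold rise or more, about +100% in these data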;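 note: firefly luciferase made from a UUG start codon reports start codon fidelity; reporter light over untreated wells divided by growth signal over untreated wells; some hits fall short of that in this replicate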
PABP FP inh: PABP-poly(A) binding inhibition. inhibition, % at 35 µM. PABP-poly(A) RNA binding, fluorescence polarization. 290,000 compounds, 1% hits. P11940;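 active = 50% or more with normal probe brightness, or confirmed in later tests; inconclusive = above 50% with abnormal brightness, or retests that disagree; inactive = below 50% or failed in later tests; about a fifth of its hits are not listed in these tables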;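 note: calls also rest on retests at 20 µM and on dose response follow-up; controls were probe without protein and protein plus probe with vehicle; some compounds called inactive have numbers as strong as hits; many hits fall short of the cut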
Target sequence (P11940 whole entry, looked up): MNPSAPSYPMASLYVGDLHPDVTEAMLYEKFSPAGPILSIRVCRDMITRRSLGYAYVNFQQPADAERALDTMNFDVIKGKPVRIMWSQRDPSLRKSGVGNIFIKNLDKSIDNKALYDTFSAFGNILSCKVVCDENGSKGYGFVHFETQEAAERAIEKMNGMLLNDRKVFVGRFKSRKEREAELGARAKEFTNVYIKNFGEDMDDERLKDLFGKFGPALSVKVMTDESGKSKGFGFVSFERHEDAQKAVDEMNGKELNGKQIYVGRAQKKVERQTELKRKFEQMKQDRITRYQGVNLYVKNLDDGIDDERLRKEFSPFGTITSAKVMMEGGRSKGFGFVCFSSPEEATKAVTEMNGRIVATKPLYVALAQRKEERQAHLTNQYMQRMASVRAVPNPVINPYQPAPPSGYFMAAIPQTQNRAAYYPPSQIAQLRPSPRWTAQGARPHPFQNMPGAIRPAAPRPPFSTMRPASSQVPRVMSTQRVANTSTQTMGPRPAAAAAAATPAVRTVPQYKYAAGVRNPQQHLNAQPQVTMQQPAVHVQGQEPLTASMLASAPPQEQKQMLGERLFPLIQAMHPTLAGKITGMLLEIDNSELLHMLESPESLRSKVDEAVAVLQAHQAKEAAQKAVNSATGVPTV
Env fusion inh: inhibitors of HIV Env-mediated cell fusion; HeLa-JRFL Env/CEM21 cell fusion, luciferase; inhibition, % at 12.3 µM; 360,000 compounds, 1.1% hits;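 active = mean replicate inhibition score of at least 50 and every replicate individually at or above 50; inconclusive = only one of the two criteria met; inactive = mean below 50 and not all replicates reaching 50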;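 note: 0% = plate neutral controls and 100% = maraviroc near 300 nM; one replicate is shown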
MT1-MMP act inh: blocks activation of human MT1-MMP; HT1080 RFP-PRO-GFP cells, GFP/RFP ratio fluorescence, overnight; percent of plate control window, DMSO zero; 360,000 compounds, 0.061% hits; GFP/RFP ratio change, % at 20 µM; AID 651647;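 active = GFP/RFP ratio change of at least 30% with cell ATP level not reduced by more than half and red fluorescence within 50% of control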; note: strong numbers were not always called active
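Assay system – RFP-PRO-GFP reporter HT1080 cells · Compound dosing – single dose of 20 µM compound, 1% DMSO final · Incubation – overnight compound exposure at 37 °C · Measure – GFP/RFP fluorescence ratio · Benchmarks – DMSO wells and RFP-L50D-GFP cells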
MT1-MMP act inh RFP: second read-out of MT1-MMP act inh, no call of its own (marks repeat the call); RFP signal change, %; measured here: RFP expression control read;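 0 = vehicle wells; hits needed this value within 50% of zero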
* marks the source's active call; other numbers are inactive results; i = inactive; u = inconclusive; x = not tested or not shown; + = active, no number. Not all compounds are listed, so the mix of outcomes need not match the whole.

SMILES	Rce1 inhib	eIF4H FP inh	CSC inhib	Yeast UUG start	PABP FP inh	Env fusion inh	MT1-MMP act inh	MT1-MMP act inh RFP
Cc1ccc(N2C(=O)CCC(C(=O)O)C2c2cccs2)cc1 (centres undefined)	i	-8	-13	-9	2	0	3	6
COc1cccc(C2CC(=O)Nc3n[nH]c(-c4ccccc4)c32)c1OC (centres undefined)	i	-2	-18	-19	3	-21	1	1
CC(C)OC(=O)CSc1ncnc2c1cnn2Cc1ccccc1	i	-3	-7	-12	0	x	-1	-1
Cc1cccc(-c2noc(CCCC(=O)N3CCOCC3)n2)c1	i	-8	-4	x	-18	-45	-1	-1
COCCCN1C(=O)C(CC(=O)NC2CCCC2)CC(C(=O)N2CCOCC2)=C1C (centres undefined)	x	x	x	-13	x	13	2	7
COc1ccc(NC(=O)c2ccccc2C)c(OC)c1	i	5	-9	-14	-7	-145	15	6
CCC(=O)N1CCN=C1SCc1cccc(C(F)(F)F)c1	i	3	-9	-19	-6	13	3	5
COc1ccc(NC(=O)CSc2nc(SC)ns2)cc1	i	-1	x	-11	10	-68	3	6
CCC(C)NC(=O)CSc1nnc(-c2c[nH]c3ccccc23)o1 (centres undefined)	i	3	1	x	7	13	-5	-1
c1ccc2[nH]c(NN=C3CCCCCC3)nc2c1	i	3	-1	x	17	-23	7	4
COc1ccc(OC)c(CCNC(=O)CCCc2nnc3n(C)c(=O)c4sccc4n23)c1	i	6	-7	-3	2	3	0	2
CC(C)(C)n1nc2c(c1NC(=O)Cc1cccs1)CSC2	i	-7	4	x	2	x	x	x
Cc1cccc(N2CCN(C(=O)/C=C/c3cccs3)CC2)c1C	i	0	0	-3	3	4	-4	0
Cn1cc(CN2CCN(c3ncccn3)CC2)c(-c2cccc(Cl)c2)n1	i	-11	15	7	6	6	2	-5
O=S(=O)(c1ccc(F)cc1)N1CC=C(c2ccccc2)CC1	i	-1	-3	6	5	-4	2	6
Cc1ccc(S(=O)(=O)CCC(=O)Nc2cccc(C)c2)cc1	i	-5	9	-9	-4	33	13	11
O=C(CN1C(=O)C2C3CCC(C3)C2C1=O)Oc1ccc2ccccc2c1 (centres undefined)	i	-6	-7	x	-3	16	1	0
O=[N+]([O-])c1ccc2c(c1)OCCOCCOCCOCCOCCOCCO2	x	-4	-7	x	-9	23	0	1
COc1ccc(N2C(=O)c3ccccc3NC2c2ccccc2O)cc1 (centres undefined)	i	-11	7	-13	5	-33	6	3
COc1cc(OC)nc(Oc2ccccc2C(=O)Oc2ccc(F)cc2Cl)n1	i	-6	x	-4	6	x	5	8
CCCSC1=C(C#N)C(c2ccccc2C)CC(=O)N1 (centres undefined)	i	5	0	-3	-6	x	5	2
CCOC(=O)CN(C(=O)COc1ccc2c(C)cc(=O)oc2c1)c1ccc(OCC)cc1	i	-3	-6	x	11	11	2	1
COc1cc(C)c(NC(=O)c2cc(C3CC3)nc3c2cnn3C(C)C)cc1OC	x	x	19	10	x	20	-1	-2
CN(Cc1cccnc1)C(=O)c1ccc2nc(Cc3ccccc3F)oc2c1	i	-2	44	-17	-4	-5	0	-4
CC(C)c1ccc(NC(=O)COC(=O)CSc2nnc(N)s2)cc1	i	-5	0	x	-17	-121	5	5
OCCC1CN(C2CCSCC2)CCN1C1CCCC1 (centres undefined)	i	-7	0	x	2	-12	-2	4
CCN(CC)CCN(Cc1cc2cc3c(cc2[nH]c1=O)OCCO3)C(=S)NCC1CCCO1 (centres undefined)	i	-9	10	x	12	23	1	2
Cc1ccc(NC(=O)CNc2ccc(OC(C)C)cc2)cc1	i	1	7	-15	10	-26	2	-1
COC(=O)c1ccc(NC(=S)NC2c3ccccc3CC2O)cc1 (centres undefined)	i	-15	-11	x	10	9	2	3
Cc1nc2ccccn2c1-c1ccnc(SCc2ccc(Cl)cc2)n1	i	-6	1	-18	-2	43	-8	-29
Cc1cc(NC(=O)CCCN2C(=O)c3cccnc3C2=O)ccc1Br	x	0	-10	x	-9	1	-3	-1
Cc1ccc(OCC(=O)Nc2ccncc2)cc1C	x	x	x	3	x	-10	2	-13
CC12CCC(C(=O)NNc3ccccc3)(OC1=O)C2(C)C (centres undefined)	i	2	19	-15	4	12	3	0
Cc1ccccc1CN1CCCNC1=O	i	3	3	-6	-12	10	4	3
COc1ccc(OC)c(C2NC(=O)N(C)C(C)=C2C(=O)OCc2ccccc2)c1 (centres undefined)	i	-1	5	-15	-3	-1	-16	-14
Cc1ccc(C)c(N2CCN(S(=O)(=O)c3c(C(=O)N4CCCCC4)c(C)n(C)c3C)CC2)c1	i	-7	-11	3	-2	-3	-4	-1
CCN1CCCC1CNC(=O)c1cc([N+](=O)[O-])c(N(C)C)cc1OC (centres undefined)	i	-5	6	-10	1	1	-2	0
O=C(O)c1cc(N/N=C/c2ccc(OCc3ccccc3)cc2)ccc1Cl	i	0	7	x	-15	-66	-3	1
O=S(=O)(CCN1CCN(c2ccccn2)CC1)c1ccc(Cl)cc1Cl	i	0	19	-8	-7	6	-1	-5
COc1ccc(NC(=O)c2ccc3c(c2)C(=O)N(CC2CCCO2)C3=O)c(OC)c1 (centres undefined)	i	-12	x	-23	0	5	0	-1
COc1cccc2cc(C(=O)NCc3ccc(C)cc3)c(=N)oc12	i	-10	9	7	-6	-3	-3	1
O=C(CCN1C(=O)CSc2ccccc21)Nc1ccc(OC(F)(F)F)cc1	x	x	22	-17	x	-8	6	0
O=C1c2ccccc2S(=O)(=O)c2cc(C(=O)N3CCN(c4c(Cl)cncc4Cl)CC3)ccc21	i	x	-30	-17	x	-19	0	-10
CCc1ccc(NC(=O)NC(C)c2ccc3c(c2)OCO3)cc1 (centres undefined)	i	0	7	-12	0	2	2	3
CS(=O)(=O)N(CC(=O)N1CCCCC1)c1ccc(Cl)c(C(F)(F)F)c1	i	1	x	x	-8	x	-4	-1
Clc1nssc1=Nc1ccccc1	x	3	x	x	4	x	1	6
O=C(CNC(=O)C(c1ccccc1)c1ccccc1)N/N=C\c1cccc(O)c1	i	6	3	-17	2	-20	3	2
CCOC(=O)C1NN=C(C(=O)c2ccccc2)C1c1ccc(Cl)cc1 (centres undefined)	i	6	-12	1	3	4	-4	-2
Fc1ccc(/C=N/n2c(-c3cccs3)n[nH]c2=S)cc1	i	-3	8	-29	-3	-33	5	-1
O=C(c1ccc(-c2ccc(Cl)cc2)o1)N1CCN(S(=O)(=O)c2cccs2)CC1	x	x	28	-21	x	-4	-2	-1
Cc1ccc2c(c1)c(C)c(C)n2CC(O)Cn1nc(C)c(Br)c1C (centres undefined)	i	-4	1	-14	2	x	2	1
COc1cccc(/C=C/C(=O)OCC(=O)Nc2ccc3c(c2)OCO3)c1	x	x	x	-11	x	16	3	5
Cc1ccc(-c2ccccc2NC(=O)CS(=O)CC(=O)Nc2ccc(C)c(Cl)c2)o1 (centres undefined)	i	22	3	-23	32	18	-39	7
CSCCC(NC(=O)c1ccccc1)C(=O)N1CCN(Cc2ccc(Cl)cc2)CC1 (centres undefined)	x	x	x	-4	x	12	1	-4
CN(C)c1cccc(C(=O)NNC(=S)NC2CC3CCC2C3)c1 (centres undefined)	i	13	10	-28	-4	-7	-3	-3
CCCN1/C(=C(/C#N)C2=NS(=O)(=O)c3ccccc32)N(C)c2ccccc21	i	-4	1	-10	0	x	0	3
S=c1[nH]ccc2ccccc12	x	x	x	-8	x	-4	-7	0
COC(=O)COc1ccc(S(=O)(=O)N2CCN(c3ccccc3)CC2)cc1	i	2	-5	-6	2	-20	0	0
Cc1nc(NS(=O)(=O)c2ccccc2C)c2c3c(sc2n1)CCC3	i	-12	x	x	-5	x	x	x
CCCCCCSc1nsc(N)n1	i	1	14	-8	-7	-108	0	4
Following part:
SMILES	Rce1 inhib	eIF4H FP inh	CSC inhib	Yeast UUG start	PABP FP inh	Env fusion inh	MT1-MMP act inh	MT1-MMP act inh RFP
Cc1cccc(NC(=O)C2C3C=CC4(O3)C2C(=O)N(CCCN2CCCC2)C4C(=O)NC2CCCC(C)C2C)c1 (centres undefined)	i	5	-4	6	1	4	1	6
Cc1ccccc1C(=O)NNC(=O)C1CCN(c2ncccn2)CC1	i	9	5	-15	16	-1	-1	0
COCc1cc(C)nc(OCC(=O)N/N=C/c2ccc(O)cc2O)c1C#N	i	9	47	x	9	17	6	4
Cc1oc2c(C)c3oc(=O)c4c(c3cc2c1C)CCC4	i	-7	x	-4	-10	-20	14	8
O=C1Nc2ccc(F)cc2C12Nc1ccccc1-c1nnc(SCc3ccccc3)nc1O2 (centres undefined)	i	1	-7	-15	11	x	-10	1
CCOP(=O)(OCC)C(NC(=O)c1cccs1)C(F)(F)F (centres undefined)	i	3	3	x	22	5	-2	-1
COc1ccc(CNC(=O)C2CCCN(C(=O)Nc3ccccc3OC)C2)cc1 (centres undefined)	i	0	7	13	3	-4	0	-1
COc1ccc(S(=O)(=O)NNc2nc(C)cc(C)n2)cc1[N+](=O)[O-]	i	-7	-4	5	-2	8	6	5
Cc1ccc(Cl)cc1NC(=O)C(=O)N/N=C/c1ccc2c(c1)OCO2	i	-2	2	-8	0	-27	3	2
COCCNC(=O)/C(C#N)=C/c1c(N2CCN(C)CC2)nc2ccccn2c1=O	i	14	2	-14	7	14	0	1
CCOC(=O)C1=C(C)N=c2s/c(=C/c3cccc([N+](=O)[O-])c3O)c(=O)n2C1c1cc(OC)c(OC)c(OC)c1 (centres undefined)	i	6	9	6	39	-29	4	3
Cc1cccnc1NC(=O)c1csnn1	i	2	-14	-24	2	7	3	1
CS(=O)(=O)c1ccc(C(=O)OCC(=O)N(CCc2ccccc2)Cc2ccccc2)cc1	+	x	x	1	x	x	-4	-4
Cc1ccc(NC(=O)CSC(C)C(=O)NCCc2ccccn2)cc1 (centres undefined)	i	2	2	x	0	19	-3	4
O=S(=O)(CCN1CCCC1)NCCNS(=O)(=O)c1ccc(F)cc1Br	x	x	x	-21	x	-35	3	2
CC(C)(C)c1nc(SCC(=O)N2CCCC2)c2ccccc2n1	i	-9	-6	x	0	-13	-3	-6
COc1ccc(OCC(=O)Nc2nnc(S(=O)(=O)N3CCCCCC3)s2)cc1	i	6	0	-16	-4	7	4	8
CCOC(=O)C1Sc2[nH]c(=O)sc2C(c2ccc(Cl)cc2)C1C(=O)OCC (centres undefined)	i	2	14	x	28	x	-2	0
CCN(CC(=O)Nc1ccc(Br)cc1)C(=O)c1nc2nc(C)cc(C)n2n1	x	x	-12	-10	x	-5	0	2
CCOC(=O)C1CCN(S(=O)(=O)c2ccccc2[N+](=O)[O-])CC1	i	x	-13	-1	x	11	1	-3
O=S(=O)(c1cccs1)N1CCc2ccccc21	i	-9	-9	-10	6	x	-6	-4
CCOC(=O)C1CCN(C(=O)COC(=O)c2oc3ccc(OC)cc3c2C)CC1	x	x	x	8	x	-3	3	2
O=C(CN1CCC(C(=O)c2ccc(F)cc2)CC1)Nc1ccccc1	i	-2	-9	-3	4	u	0	-11
O=c1[nH]c(CSc2nc(-c3ccc(F)cc3)cs2)nc2ccccc12	i	-6	0	-4	-4	2	-2	1

3 compounds already listed, ordered by the value under MT1-MMP act inh, smallest number first:
smiles | MT1-MMP act inh
O=S(=O)(c1cccs1)N1CCc2ccccc21 | -6
O=C(CN1CCC(C(=O)c2ccc(F)cc2)CC1)Nc1ccccc1 | 0
CCOC(=O)C1CCN(C(=O)COC(=O)c2oc3ccc(OC)cc3c2C)CC1 | 3
